miR-21 reporter: miR-21 reporter, rising signal. 340,000 tested, under 10 active. HeLa miR-21 FLuc reporter, luciferase, 48 h. Potency, µM (titrated, usually from 38.3 µM), for the others: at the highest dose reporter change, positive = more light; active = well fitted rising curve with a large enough effect; inconclusive = small, poorly fitted or top-dose-only effect; inactive = no such curve, though single readings can be large or run the other way;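 note: % of control where 0% means no effect; miR-21 action dims this reporter so a rising signal means less miR-21 action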
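HeLa cells endogenously expressing miR-21, stably carrying CMV-driven firefly luciferase with a downstream miR-21 binding site, 2000 cells/well. Titrations up to approximately 40 uM, 48 hours; luciferase luminescence read.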
GLA inh pH 4.5: alpha-galactosidase A (human) inhibition, pH 4.5; AID 1467; activity change, negative = inhibition, % at 105 µM; P06280; 230,000 tested, under 10 active; purified enzyme, 4-MU-alpha-Gal fluorescence, pH 4.5; inconclusive = small, poorly fitted or top-dose-only inhibition, or a rising curve; inactive = flat fitted curve, though single readings scatter; no compound was filed as active;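 note: 0% = full activity with enzyme and -100% = basal without enzyme; dose as in the result columns while the protocol names 77 µM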
Rango release inh: inhibition of RanGTP-driven Rango-importin beta dissociation. Biochemical FRET Rango-importin beta, RanGTP-induced dissociation. Potency, µM (series often up to 46.1 µM), for the others: at the top dose activity change, negative = inhibition. O95149+P62826. 340,000 tested, 0.071% active; active means falling FRET ratio curve, often poorly fitted, with flat reads before Ran was added; inconclusive means other falling curves, or compound fluorescence or quenching; inactive means flat or rising ratio curve;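 note: potency is the fitted concentration of half-maximal effect; % of control where 0% means no effect; nearly all actives have a fitted effect of over 45% in size; -100% = wells without RanGTP and RCC1; the record marks most hits as doubtful in a second field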
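Quantitative HTS using a FRET biosensor: 0.1 uM Rango, 0.25 uM importin beta, 0.6 uM Ran, 2 mM GTP, 0.2 uM RCC1 final, PBS with DTT, Tween-20 and BSA. Post-read taken 45 min after Ran addition.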
Rango-impB inh: prevents formation of the Rango-importin beta complex. Potency, µM (doses to about 92.2 µM), without a hit: at the top dose inhibition of complex formation. AID 540263. Q14974. 340,000 tested, 0.031% active. Rango CFP/YFP FRET sensor + importin beta, 45 min; active = rising FRET ratio curve, often small or poorly fitted; inconclusive = mostly compound fluorescence or quenching in the first reads; inactive = flat curves in all reads;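 note: potency is the fitted concentration of half-maximal effect; 0% = DMSO wells and 100% = buffer wells lacking importin beta; nearly all actives have a fitted effect of over 15% in size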
Target sequence (Q14974 whole entry, looked up): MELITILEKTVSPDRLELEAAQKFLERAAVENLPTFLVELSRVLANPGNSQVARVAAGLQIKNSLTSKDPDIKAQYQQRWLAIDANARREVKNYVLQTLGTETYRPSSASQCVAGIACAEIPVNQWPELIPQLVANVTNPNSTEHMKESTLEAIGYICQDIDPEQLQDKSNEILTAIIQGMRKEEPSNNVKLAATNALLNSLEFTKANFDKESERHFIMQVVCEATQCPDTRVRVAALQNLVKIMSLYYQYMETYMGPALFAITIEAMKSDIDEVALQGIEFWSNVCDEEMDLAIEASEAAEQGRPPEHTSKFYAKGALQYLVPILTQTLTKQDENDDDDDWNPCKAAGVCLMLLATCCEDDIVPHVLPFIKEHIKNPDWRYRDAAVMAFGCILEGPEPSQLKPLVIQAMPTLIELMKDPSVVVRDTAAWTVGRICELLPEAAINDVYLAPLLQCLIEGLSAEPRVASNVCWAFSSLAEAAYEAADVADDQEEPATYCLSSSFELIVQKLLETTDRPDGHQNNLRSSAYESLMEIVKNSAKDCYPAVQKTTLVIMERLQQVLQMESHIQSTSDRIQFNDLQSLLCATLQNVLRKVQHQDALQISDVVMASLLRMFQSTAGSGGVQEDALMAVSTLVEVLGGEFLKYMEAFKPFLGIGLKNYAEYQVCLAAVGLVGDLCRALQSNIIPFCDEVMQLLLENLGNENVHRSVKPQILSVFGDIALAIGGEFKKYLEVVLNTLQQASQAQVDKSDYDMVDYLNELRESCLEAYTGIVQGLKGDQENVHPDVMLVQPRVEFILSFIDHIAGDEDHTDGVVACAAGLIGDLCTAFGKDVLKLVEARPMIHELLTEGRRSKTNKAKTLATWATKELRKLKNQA
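FRET biosensor Rango (snurportin 1 IBB between N-terminal EYFP and C-terminal Cerulean), 50 nM in PBS/1 mM DTT/0.02% Tween-20/0.1% BSA, preincubated 5 min RT with compound; 0.125 microM importin beta added, 45 min RT, CFP/YFP FRET ratio read.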
Starred values were filed as active, the others as inactive; ? = inconclusive; . = not tested or not shown; & = joins results of further samples. A portion of the library (hit frequency here may not be typical).

Below each compound: miR-21 reporter | GLA inh pH 4.5 | Rango release inh | Rango-impB inh
> C=CCC[C@H](Cc1ccc(F)cc1)C(=O)OC[C@@H](C)NC(=O)[C@H](CC=C)CC(=O)NCCO
→ . | . | 1% | 2.3%
> O=C(NC(=O)N1CCN(c2ccc(F)cc2)CC1)c1ccccc1
→ 5% | 8 | -3% | 3.1%
> COc1cc(S(=O)(=O)N(C)C)ccc1Br
→ -14% | -3 | 9% | 6.3%
> CC1CN(C(=S)SCC(=O)c2ccc(Cl)cc2)CC(C)O1 (configuration not stated)
→ -26% | 1 | 32% | -2.8%
> CC(=O)OCC1OC(n2c3c(cc(C#N)c2=S)CCCC3)C(OC(C)=O)C(OC(C)=O)C1OC(C)=O (configuration not stated)
→ . | . | -10% | -3.6%
> CC(C)c1c(C(=O)N/N=C/c2ccc(OCc3ccc(F)cc3)cc2)nnn1-c1nonc1N
→ -14% | . | -6% | -2.7%
> O=C(Nc1ccc(Cl)c([N+](=O)[O-])c1)ONC1=NCCCCC1
→ 16% | 4 | 7% | -1.7%
> O=C1CSC(c2nn(-c3ccccc3)cc2-c2cc3ccccc3oc2=O)N1Cc1ccco1 (configuration not stated)
→ -3% | 6 | -21% | 2.2%
> CC(=O)Nc1ccc(NC(=O)C(C)Sc2nnc(-c3cccs3)o2)cc1 (configuration not stated)
→ 5% | 0 | 1% | 0.1%
> CCc1ccc(CNC(=O)C2CC(=O)N(CCc3ccc(C)cc3)C2)cc1 (configuration not stated)
→ 5% | -3 | 26% | 0.0%
> CCOc1cc(C(=S)N2CCCCC2)ccc1OCC(=O)NCc1ccccc1
→ -7% | 4 | -20% | 0.7%
> CCN(CC)C(=O)CSc1nnc(-c2ccccc2)n1N
→ -12% | -1 | -3% | 2.3%
> COc1ccc(C)cc1N(C(=O)c1ccc(F)cc1)c1nc2ccccc2s1
→ -3% | -7 | -12% | -0.1%
> CC1CC(C)CN(C(=O)Cn2cc(C=O)c3ccccc32)C1 (configuration not stated)
→ -3% | 8 | 6% | -4.9%
> CN(CCCC(=O)NCc1ccco1)S(=O)(=O)c1ccccc1
→ -4% | -9 | 1% | -4.6%
> C=CCc1cc(Cl)ccc1OCCN1CC(C)OC(C)C1 (configuration not stated)
→ -1% | -1 | -13% | 0.4%
> CC(=O)Nc1ccc(NS(=O)(=O)c2ccc(C)cc2)c([N+](=O)[O-])c1
→ -2% | -1 | -6% | 2.1%
> CN1CCN(c2ccc(NC(=O)c3ccc4c(c3)OCCO4)cc2)CC1
→ -35% | 6 | 13% | -1.5%
> COc1c(Cl)cc(Cl)cc1/C=C/C(=O)c1ccc(NC(=O)c2cccs2)cc1
→ -14% | -4 | 17% | -6.8%
> COc1ccc2c(C(=O)NCc3ccc4c(c3)OCO4)c(-c3ccc(S(C)(=O)=O)cc3)sc2c1
→ . | . | 16% | -0.5%
> CN(C)/C=C(/C(=O)c1ccc(Cl)cc1Cl)S(=O)(=O)c1ccccc1
→ -39% | -3 | -19% | 0.3%
> O=C(Nc1ccccc1)OC(CN1CCCCC1)C(F)(F)F (configuration not stated)
→ -12% | -3 | 30% | 2.5%
> Cc1cccc(NC(=O)CSc2nnc(-c3cc(C)[nH]n3)n2N)c1
→ -1% | . | -3% | 5.2%
> CC(C)OP(=O)(OC(C)C)C(O)c1ccc(N(C)C)cc1 (configuration not stated)
→ -2% | -1 | -9% | -3.3%
> CC(C)(O)/C=C/C[C@](C)(O)C1CC[C@]2(C)C1[C@H](O[C@H]1O[C@@H](CO)[C@H](O)[C@@H](O)[C@@H]1O)CC1[C@@]3(C)CC[C@H](O)C(C)(C)C3[C@@H](O)C[C@]12C (some centres not stated)
→ . | . | 9% | 1.2%
> COc1ccc(N2CCN(C(=O)c3cccs3)CC2)cc1
→ -31% | . | -1% | 0.1%
> CC(C)(C)c1ccc(NC(=S)NCCc2ccccn2)cc1
→ -3% | 0 | -10% | -2.6%
> Cc1ccc(OCC(=O)O/N=C(\N)Cc2cccs2)cc1C
→ . | . | 10% | 5.9%
> CC(C)S(=O)(=O)c1csc(NC(=O)Nc2cc(Cl)ccc2Cl)c1Cl
→ -1% | -12 | 2% | -0.2%
> CCCC(CCC(=O)NC1CCCCC1)C(=O)O (configuration not stated)
→ -3% | 2 | 2% | -0.9%
> O=C(CCc1nc(-c2ccccc2)c(-c2ccccc2)o1)OCc1ccc(Br)cc1
→ -2% | -16 | 2% | 0.8%
> CC(=O)Nc1ccc(NC(=O)CCC(=O)OCC(=O)c2ccc(C)c([N+](=O)[O-])c2)cc1
→ -1% | 5 | -5% | -0.3%
> COc1ccc(CCNC(=O)c2ccc3c(c2)N(Cc2ccc(F)cc2)CCS3)cc1OC
→ 15%&-1% | . | -12% | 1.1%
> O=C(NCc1ccccc1)C1CC2CCCC(C1)C2=O (configuration not stated)
→ 1% | -3 | -5% | 3.7%
> Cn1c(CCc2ccccc2)nnc1SCC(N)=O
→ 2% | . | 0% | 0.6%
> CC(C)(C)c1ccc(/C=C/C(=O)Nc2nncs2)cc1
→ -71% | -12 | -1% | -0.6%
> O=C(Cn1cnc2ccccc2c1=O)N/N=C/c1ccc(Br)cc1
→ 0% | -3 | 0% | 1.2%
> Cc1ccc(NC(=S)N2CCSC2c2cccs2)cc1 (configuration not stated)
→ -18% | 0 | 4% | -1.1%
> Cc1ccc(C(=O)Nc2nccs2)cc1S(=O)(=O)N1CCCCC1
→ 0% | 6 | -4% | 0.4%
> Cc1ccc(/C=N/NC(=O)c2cc(C3CC3)nc3ccccc23)o1
→ 17% | 3 | -1% | -2.0%
> COc1ccc(Oc2cc(NN3CCCCC3)c([N+](=O)[O-])cc2[N+](=O)[O-])cc1OC
→ -14% | . | 20% | -1.7%
> Cc1cc(=O)[nH]c(SCC2COC3(CCCCC3)O2)n1 (configuration not stated)
→ -5% | 3 | -2% | -1.3%
> O=C(Nc1cc(C(F)(F)F)ccc1Cl)c1cc2nc3c(c(C(F)(F)F)n2n1)CCCC3
→ -4% | 0 | -15% | -2.4%
> COc1ccc(S(=O)(=O)N2CCC(C(=O)NCc3ccco3)CC2)cc1C
→ 1% | . | -9% | -3.2%
> Cc1cc(C)nc(N(C#N)Cc2ccc(Br)cc2)n1
→ -13% | 7 | -4% | 0.9%
> O=C(Nc1cccc(C(F)(F)F)c1)c1n[nH]c(Cn2cncn2)n1
→ -4% | 3 | -10% | 4.3%
> O=C(NCCCCc1ccccc1)C1CC(c2cccc([N+](=O)[O-])c2)=NO1 (configuration not stated)
→ 3% | -6 | 9% | -2.8%
> CCNc1nc2c(c(=O)n(C)c(=O)n2C)n1Cc1ccc(Cl)cc1
→ 20% | . | -10% | 2.0%
> CNS(=O)(=O)c1cc(NC(=O)CCCNC(=O)c2ccc(Cl)cc2)ccc1C
→ -5% | . | ? | -0.9%
> Cc1cccc(NC(=S)N/C(=N/S(=O)(=O)c2ccccc2)c2ccccc2)c1
→ -44% | -3 | -9%&9% | 1.9%&-2.4%
> CCCNS(=O)(=O)c1ccc(CCC(=O)N2CCOCC2)cc1
→ -3% | -3 | -7% | 4.2%
> COc1ccc(CCNC(=O)C(C)n2nc(C)n3c(cc4occc43)c2=O)cc1OC (configuration not stated)
→ -2% | . | 0% | -2.0%
> Cc1ccc(CNC(=O)c2oc3ccc(S(=O)(=O)N4CCC5(CC4)OCCO5)cc3c2C)cc1
→ 24% | -11 | 0% | 0.6%
> CCn1c(SCC(=O)N(C)CC(=O)Nc2ccc(OC)cc2)nnc1-c1ccco1
→ . | . | -6% | -0.2%
> COC(=O)c1ccc(CN2CCN(C3CCCCC3)C(CCO)C2)cc1 (configuration not stated)
→ 4% | -4 | -5% | -2.0%
> Cc1c(CN2CCCCC2C)c(=O)n(-c2ccccc2)n1C (configuration not stated)
→ -2% | -13 | 2% | 2.4%
> CCOC(=O)N1CCC(N(CCCOC)C(=O)Nc2ccc(CC)cc2)CC1
→ -11% | 7 | 9% | -0.1%
> N#C/C(=C(/O)COc1ccc(Cl)cc1)c1nc2ccccc2s1
→ -4% | -15 | 7% | 0.0%
> CC1/C(=N/O)CC(c2ccccc2)N(C)C1c1ccccc1 (configuration not stated)
→ -9% | -27 | 3% | 3.5%
> CN1C(=O)/C(=C/c2ccccc2OCc2ccc(F)cc2)N(C)C1=S
→ -2% | -3 | ? | ?

Next part
Below each compound: miR-21 reporter | GLA inh pH 4.5 | Rango release inh | Rango-impB inh
> O=C(/C=C/c1cccnc1)c1ccc(F)c(F)c1
→ ? | . | -1% | -4.2%
> O=C(O)CCCCCN1C(=O)CSC1=S
→ 16% | -5 | 5% | ?
> CCn1c(C)c(C(C)=O)c(N2CCN(c3ccccc3)CC2)nc1=S
→ -9% | -2 | ? | ?
> Nn1cnc2cc3ccccc3cc2c1=O
→ -12% | . | ? | ?
> O=C(Nc1ccccc1-c1nnc(SCc2ccc(Cl)cc2Cl)o1)c1ccccc1
→ -8% | 5 | 2% | -1.4%
> CCc1nn(C)c2c(=O)c(=O)c2n(C)[nH]1
→ -1% | -7 | -2% | 1.9%
> CC(NC(=O)c1cccs1)C(c1cccs1)N1CCOCC1 (configuration not stated)
→ -1% | -2 | -8% | 1.4%
> Cc1ccc(NC(=S)N=Nc2c(O)[nH]c3ccccc23)cc1
→ 6% | -9 | -2% | 1.5%
> COc1ccc(S(=O)(=O)Nc2ccccc2)cc1
→ . | . | -6% | 3.5%
> CCOc1cc(N2CCOCC2)c(OCC)cc1NC(=O)CN1C(=O)N(C)C2(CCCCC2)C1=O
→ . | . | 17% | -2.7%
> O=C(CCN1CCOCC1)NNC(=O)c1ccc(Cl)c([N+](=O)[O-])c1
→ . | . | 8% | -0.5%
> Cc1cc(C(=O)N/N=C/c2sccc2C)no1
→ -33% | 8 | -1% | -0.1%
> Cc1c(Cl)ccc2c(C(=O)NCCCn3nccc3C)cc(-c3ccccn3)nc12
→ 3% | . | -7% | 2.7%
> Cc1ccc(CNC(=O)C2CCC(=O)N(C3CC3)C2)cc1 (configuration not stated)
→ -4% | . | -9% | 0.9%
> COc1ccccc1-c1noc(COC(=O)c2ccc(Br)o2)n1
→ . | . | -13% | -0.1%
> COc1ccc(/C(C)=N/Nc2cc(C(F)(F)F)ccc2Cl)c(OC)c1
→ -8% | -19 | . | .
> Cc1ccccc1Nc1nc(N)nc(CCl)n1
→ ? | 2 | 12% | 0.8%
> CCCN(CCC)CCNC(=O)c1cc2c(-c3ccccc3F)nn(C)c2s1
→ 6%&1% | . | 3% | 6.1%
> O=C(Cn1nc(Cc2ccncc2)c2ccccc2c1=O)N1CCN(C(=O)c2ccco2)CC1
→ -2% | 1 | -23% | 0.6%
> CCCc1ccc(S(=O)(=O)Nc2ccc(C)c(NS(C)(=O)=O)c2)cc1
→ -3% | -1 | -6% | 4.1%
> Cn1cccc1Cc1nnc(SCC(=O)NC2CCCCC2)n1CCc1ccccc1
→ -2% | 1 | 15% | -1.3%
> CCC(C)(C)n1nnnc1C(c1ccc(C)cc1)N1CCC(C)CC1 (configuration not stated)
→ -3% | 1 | -1% | -2.3%

Arranged by length of the SMILES (smallest number first): three of the compounds above.
Below each compound: miR-21 reporter | GLA inh pH 4.5 | Rango release inh | Rango-impB inh
> Cc1cc(C(=O)N/N=C/c2sccc2C)no1
→ -33% | 8 | -1% | -0.1%
> COc1ccccc1-c1noc(COC(=O)c2ccc(Br)o2)n1
→ . | . | -13% | -0.1%
> Cc1c(Cl)ccc2c(C(=O)NCCCn3nccc3C)cc(-c3ccccn3)nc12
→ 3% | . | -7% | 2.7%

Reformatted with each value named: entries from further up.
CCc1nn(C)c2c(=O)c(=O)c2n(C)[nH]1
  miR-21 reporter = -1% | GLA inh pH 4.5 = -7 | Rango release inh = -2% | Rango-impB inh = 1.9%
CC(NC(=O)c1cccs1)C(c1cccs1)N1CCOCC1 (configuration not stated)
  miR-21 reporter = -1% | GLA inh pH 4.5 = -2 | Rango release inh = -8% | Rango-impB inh = 1.4%
Cc1ccc(NC(=S)N=Nc2c(O)[nH]c3ccccc23)cc1
  miR-21 reporter = 6% | GLA inh pH 4.5 = -9 | Rango release inh = -2% | Rango-impB inh = 1.5%
